Compound activity (PubChem)
VACV Venus inh: qHTS for Stage-Specific Inhibitors of Vaccinia Orthopoxvirus: Venus Reporter Primary qHTS; hit rate 0.46% among 330,000; AID 720580, 2013; Vaccinia virus Venus reporter expression, fluorescence; Potency, µM (highest dose often 36.5 µM), without a hit: at the highest dose activity change, negative = inhibition, actives largely listed as inhibitors; active means well fitted inhibition curve with a large enough effect; inconclusive means small, poorly fitted or top-dose-only effect; inactive means no such curve, though single readings can be large or run the other way; tested in A549 cells; note: nearly all actives have a fitted effect of over 30% in size; inactives centre near -10
VACV mCherry inh: qHTS for Stage-Specific Inhibitors of Vaccinia Orthopoxvirus: mCherry Reporter Primary qHTS. Vaccinia virus mCherry reporter infection, fluorescence; about a quarter of the inactives have no number. Potency, µM (series often up to 36.5 µM), for the others: at the highest dose activity change, negative = inhibition, most hits filed as inhibitors. hit rate 0.63% among 310,000. AID 720579, 2013; active = well fitted inhibition curve with a large enough effect; inconclusive = small, poorly fitted or top-dose-only effect; inactive = no such curve, though single readings can be large or run the other way; tested in A549 cells; note: nearly all actives have a fitted effect of over 35% in size; inactives centre near -10
* marks the source's active call; other numbers are inactive results; i = inactive; ? = inconclusive; / = not tested or not shown; [ ] = dose if it differs, or a comment. % is set by controls: 0 for no effect and ±100 for the full control effect; potency is the fitted concentration of half-maximal effect.

Values run as follows: VACV Venus inh	VACV mCherry inh
> COc1ccccc1CCN1CCCC(CN(C)CC(C)(C)CO)C1 (configuration not stated)
 : -11.1%	-12.7%
> O=C(c1ccccc1F)N1c2nc(-c3ccco3)nn2C2(CCCCC2)[C@@H]2CCCC[C@@H]21
 : -1.0%	10.6%
> CCCCCCCOc1ccc(C2(C)NC(=O)NC2=O)cc1 (configuration not stated)
 : -1.8%	-9.3%
> COCCN1CCN(Cc2cn(C)nc2-c2ccc(Oc3ccccc3)cc2)CC1
 : 0.0%[7.34 µM]	-2.2%[7.34 µM]
> COC(=O)c1c(-c2cccs2)csc1NC(=O)c1cc(OC)c(OC)c(OC)c1
 : -19.8%[7.34 µM]	-13.0%[7.34 µM]
> CC(C)(C)OC(=O)C[C@@H]1C/C=C\C[C@@H](CC(=O)NCCO)C(=O)N[C@H](C(C)(C)C)COC1=O
 : -8.9%	-11.0%
> O=C(NCc1cccc(F)c1)c1cccc2c1C(=O)c1ccc(Cl)cc1S2(=O)=O
 : -9.1%	-17.0%
> Cc1ccc(OCC(=O)Nc2ccc(-n3cnnn3)cc2)c(C)c1
 : -21.8%	-4.5%
> O=C(NCC1CCCO1)c1ccc(Cl)c(F)c1F (configuration not stated)
 : -16.4%	i
> Cc1ccc(NC(=O)CNC(=O)c2ccc(Oc3ccccc3)cc2)nc1
 : -15.8%	i
> O=C(COc1ccccc1C(=O)OCC(=O)N1CCOCC1)Nc1ccc(Br)cc1
 : -17.0%	i
> Cc1nc(SC2CC(=O)N(c3ccc([N+](=O)[O-])cc3)C2=O)nc2c1CCCC2 (configuration not stated)
 : -25.3%	-22.0%
> CC(=O)C1=C(O)C(=O)N(Cc2ccco2)C1c1cccc(F)c1 (configuration not stated)
 : -6.7%	i
> Cc1ccc(C)n1-c1nnc(N2CCCC(C(=O)NCc3cccc(F)c3)C2)s1 (configuration not stated)
 : -14.4%	-18.6%
> O=c1c(Cc2ccc(F)cc2)c(O)ccn1C1CCCCC1
 : -21.7%	/
> O=C(CCN1C(=O)c2ccccc2C1=O)Nc1ccccc1C(=O)N1CCOCC1
 : -10.0%	/
> COC(=O)Cc1ccc(NC(=S)Nc2cccc(C)n2)cc1
 : -10.2%	i
> CN(C[C@@H](Cc1cccc2ccccc12)N(C[C@H](Cc1ccccc1)N(CCc1ccccc1)N=O)N=O)N=O
 : -16.0%	i
> CC(C)(C)[C@H]1COC(=O)[C@H](NC(=O)OCC2c3ccccc3-c3ccccc32)C/C=C\C[C@@H](CC(=O)N[C@H](CO)Cc2ccccc2)C(=O)N1
 : -16.5%	-2.6%
> CCN(CC)S(=O)(=O)c1ccc2c(c1)N(CC(=O)N1CCN(c3cccc(C(F)(F)F)c3)CC1)C(=O)CO2
 : -9.7%	-15.2%
> CCC(=Nc1cccc(C(F)(F)F)c1)c1c(O)n(C)c(=O)n(C)c1=O
 : 2.4%	i
> O=c1[nH]c2c(Br)cnc([N+](=O)[O-])c2[nH]1
 : -7.8%	i
> CCCOc1ccccc1C(=O)N(Cc1cccs1)C1CCS(=O)(=O)C1 (configuration not stated)
 : -21.2%	/
> CCC(NC(=O)CCl)c1ccc(C)cc1 (configuration not stated)
 : -8.0%	-21.0%
> CCN(C(=O)COC(=O)CCNS(=O)(=O)c1ccccc1F)c1c(N)n(Cc2ccccc2)c(=O)[nH]c1=O
 : -10.7%	-9.1%
> CC(=O)c1cccc(NC(=O)c2ccc3c(c2)C(=O)N(Cc2cccnc2)C3=O)c1
 : -12.4%	i
> COc1cc(OC)cc(C(=O)/C=C2\Sc3ccccc3N2C)c1
 : -5.0%	-12.0%
> COc1ccc(CN(C(=O)CSc2nnc(-c3ccc(F)cc3)o2)c2ccc(F)cc2)cc1
 : -27.0%	?
> O=C(NCc1ccco1)c1cc2cc3ccc(Cl)cc3nc2o1
 : ?	?
> Cc1ccc(C2(C)NC(=O)N(CC(=O)Nc3cc(S(=O)(=O)N4CCOCC4)ccc3C)C2=O)cc1 (configuration not stated)
 : -11.1%	i

Single records, as listed above. Values in the order: VACV Venus inh, VACV mCherry inh
Results for COc1cc(OC)cc(C(=O)/C=C2\Sc3ccccc3N2C)c1 → -5.0%, -12.0%
Results for O=C(NCc1cccc(F)c1)c1cccc2c1C(=O)c1ccc(Cl)cc1S2(=O)=O → -9.1%, -17.0%
Results for CC(=O)c1cccc(NC(=O)c2ccc3c(c2)C(=O)N(Cc2cccnc2)C3=O)c1 → -12.4%, i

Additional results follow.
Values run as follows: VACV Venus inh	VACV mCherry inh
> COc1ccc(C(=Cc2ccccc2)C(=O)O)cc1
 : 1.1%	-13.5%
> CC12CCC(=O)N1C(C(=O)O)Cc1c2[nH]c2ccccc12 (configuration not stated)
 : 1.8%	-13.9%
> CCN(CC)S(=O)(=O)c1cccc(C(=O)OCC(=O)c2ccc3c(c2)NC(=O)CO3)c1
 : -20.7%	-20.9%
> Cc1cc(C(=O)Nc2nc3c(C)cccc3s2)c(C)o1
 : -28.7%	/
> CCN(CC)c1ccc2cc(-c3nnc(-c4ccccc4)o3)c(=O)oc2c1
 : -6.7%	-17.3%
> O=S1(=O)C[C@@H](N2CCN(c3ccccn3)CC2)[C@H](COCc2ccccc2)N1
 : -4.4%	i
> CC1CC(C)CN(C(=O)C2CC(=O)N(c3ccc(F)cc3)C2)C1 (configuration not stated)
 : 8.5%	-1.7%
> CCOP(=O)(OCC)C(Nc1ccccc1)c1cc(OC)ccc1OC (configuration not stated)
 : -15.8%	-7.5%
> CCN1CCN(S(=O)(=O)c2cc(C(=O)O)ccc2Cl)CC1
 : -15.2%	-26.5%
> O=C(O)CSCC(=O)Nc1ccc(Br)c(C(F)(F)F)c1
 : 7.0%	i
> Cc1cccc(C(C)C)c1NC(=O)CSc1cccc[n+]1[O-]
 : -7.3%	-0.4%
> O=C(Nc1ccc(-c2nc3ncccc3o2)cc1)c1ccc(Br)o1
 : ?	?
> CC(C)(C)OC(=O)[C@H]1[C@H](c2ccc([N+](=O)[O-])cc2)C2(C(=O)c3ccccc3C2=O)C2c3ccccc3C=NN21 (some centres not stated)
 : -10.8%	-1.5%
> O=C(N/N=C/c1ccncc1)c1cc2ccccc2o1
 : -9.4%	i
> O=C(NC1CC(=O)N(c2cccc(F)c2)C1)N1CCN(C(=O)c2ccco2)CC1 (configuration not stated)
 : -5.8%	-9.9%
> CCOc1ccc(NC(=O)c2cc(=O)[nH]c3ccccc23)cc1
 : -12.9%	i
> CCNc1nc(NC(C)(C)C)nc(Oc2ccc(=O)n(C)n2)n1
 : -3.2%	-7.1%
> c1ccc2c(c1)OCCOCCOCCOCCOCCOc1ccccc1OCCOCCOCCO2
 : -26.8%	?
> COc1ccc(C(=O)Nc2ccc(N3CCOCC3)c(C(F)(F)F)c2)cc1OC
 : -10.8%	-1.9%
> COc1ccc(S(=O)(=O)NCCC(C)C)cc1OC
 : -1.8%	-13.4%
> N#Cc1ccc(Nc2nc(NCc3ccccc3)nc3ccsc23)cc1
 : -19.0%	-4.6%
> O=C(NCc1ccccc1)C1c2ccccc2Oc2ccccc21
 : -13.6%	-27.9%
> CN1C[C@@H]2C[C@@H](c3cccn3-c3nccs3)N3CCC[C@@]23C1=O
 : -13.5%	-4.0%
> Fc1ccccc1Nc1ncnc2c1nc1n2CCCCC1
 : 11.6%	17.2%
> COC(=O)c1c(NC(=O)COC(=O)CC(NC(C)=O)c2ccccc2)sc(C)c1C (configuration not stated)
 : -13.0%	i
> Cc1cc(C)c(NC(=O)C[N+](C)(C)CC(O)COc2cccc3ccccc23)c(C)c1 (configuration not stated)
 : -12.0%	i
> COc1cccc(-n2c(=O)c3c(C)c(C)sc3n(CC(=O)NCCc3ccc(OC)c(OC)c3)c2=O)c1
 : 10.7%	10.0%
> CC(NC(=O)CCn1nc(-c2ccc(Cl)cc2)ccc1=O)c1ccccc1 (configuration not stated)
 : -6.3%	-7.0%
> NS(=O)(=O)c1ccc(CCNC(=O)c2ccc(Cl)c(S(=O)(=O)N3CCCCC3)c2)cc1
 : 294.8%[activator]	114.0%[activator]
> Cc1cc(=S)cc(C)n1CCCn1ccnc1
 : -11.1%	/

Values run as follows: VACV Venus inh	VACV mCherry inh
> COC(=O)C(/C=N/OCc1ccc([N+](=O)[O-])cc1)NC(=O)c1cccc(Cl)c1 (configuration not stated)
 : -5.5%	/
> CCOC(=O)c1cn(Cc2cccc(Cl)c2)c2cc(C)nn2c1=O
 : -3.5%	-6.9%
> CCOc1ccc(C(=O)CCc2nc3ccccc3s2)cc1
 : -7.2%	-9.9%
> Cc1[nH]n2c(=O)c(C#N)c(-c3ccccc3)nc2c1-c1ccccc1
 : -6.6%	-1.2%
> C[C@@H]1CCCCO[C@@H](CN(C)S(C)(=O)=O)[C@@H](C)CN([C@H](C)CO)C(=O)c2cc(N(C)C)ccc2O1
 : -16.0%	-14.2%
> CC(=O)Nc1cccc(NC(=O)CSc2ccc(C(F)(F)F)cc2[N+](=O)[O-])c1
 : 1.8%	5.8%
> CCNC(=O)C(=O)N/N=C/c1cc([N+](=O)[O-])ccc1O
 : -4.4%	-12.1%
> CC(CCCC(C)(C)O)NC(=O)c1cc(COc2ccc3ncccc3c2)on1 (configuration not stated)
 : -20.2%	-25.3%
> C/C(=N\NS(=O)(=O)c1ccc([N+](=O)[O-])cc1)c1ccc2c(c1)OCO2
 : -8.1%	-21.3%
> N#CC(C#N)=Cc1cn(-c2ncc(C(F)(F)F)cc2Cl)c2ccccc12
 : -1.3%	/
> CC(C)Cc1nc2oc3c(Cl)ncnc3c2c2c1CCC2
 : -3.3%	-4.3%
> COc1ccc(C(=O)CCC(=O)Nc2cccc(Cl)c2)cc1
 : -11.0%	-7.4%
> COC(=O)CC(N)c1ccc(OC)c2ccccc12 (configuration not stated)
 : -1.5%	-3.5%
> COc1cc(C2NC(=O)N(C)C3=C2C(=O)N(c2ccccc2)C3)ccc1O (configuration not stated)
 : 12.9%	8.1%
> COc1ccc(NC(=O)c2ccc3nc(C)sc3c2)cc1
 : -15.7%	-0.9%
> CC1=C(C(=O)Nc2ccccc2C)C(c2ccccc2)NC(=O)N1 (configuration not stated)
 : -9.7%	-20.5%
> Cc1cc(Br)cc(C)c1OCC(=O)NNC(=O)CCC(=O)NCc1ccccc1
 : -15.6%	i
> O=[N+]([O-])c1ccc(NCc2ccccc2)c2nonc12
 : 261.0%[activator]	-26.7%
> CC(=O)NC(CC(=O)NNC(=O)C(C)Oc1ccccc1F)c1ccccc1 (configuration not stated)
 : -5.3%	-14.8%
> Cc1cccc(C)c1NC(=O)COC(=O)c1ccc([N+](=O)[O-])o1
 : -6.8%	-13.9%
> CC(=O)Nc1cccc2ccc(O)cc12
 : -3.4%	-21.0%
> O=C(Nc1ccccc1)c1ccc(NC(=O)C2CC2)cc1
 : -24.9%	-8.8%
> CCSc1ncnc2nc[nH]c12
 : -4.9%	-19.9%
> O=S(=O)(c1ccc(F)cc1)N1CCN(C(=S)NCc2ccccc2)CC1
 : -24.6%	-1.1%
> CCN(C[C@H]1N[C@@](CC)(C(=O)OC)[C@H]2C(=O)N(Cc3ccccc3)C(=O)[C@@H]12)C(=O)c1ccc(C)cc1
 : 3.6%	-14.1%
> Cc1cccc(S(=O)(=O)NC(=O)C2(C)CCN2C(=O)CCc2ccccc2)c1 (configuration not stated)
 : 12.5%	35.4%[activator]
> O=C(NNC(=O)c1ccncc1)Nc1ccccc1
 : -9.3%	-24.3%
> CCCCn1c(CNC(=O)c2ccc(OC)cc2)nnc1SCC(=O)Nc1ccccc1
 : -6.8%	3.5%
> Cc1cc(N2CCCC2=O)ccc1S(=O)(=O)Nc1c(C)nn(C)c1C
 : -18.2%	-13.6%
> CCOc1ccc(CCNC(=O)CN2C(=O)COc3ccc(S(=O)(=O)N4CCCCCC4)cc32)cc1
 : 4.9%	-4.8%

Values run as follows: VACV Venus inh	VACV mCherry inh
> Cc1sc2nc(C3CC3)nc(SCC(=O)N3CCc4ccccc4C3)c2c1C
 : -14.1%	-6.9%
> COc1ccc(/C(N)=N/OC(=O)COc2ccccc2Cl)cc1
 : -7.5%	-9.7%
> COc1ccc(C2=NN(C(=S)Nc3ccccc3)C(c3ccccc3)C2)cc1 (configuration not stated)
 : -11.5%	-12.5%
> CSc1ccc(CCNC(=O)CS(=O)(=O)Cc2nc(-c3ccccc3F)oc2C)cc1
 : -22.6%	-13.7%
> O=C(CCSc1nnc(-c2ccc(O)cc2)o1)N1CCOCC1
 : 2.4%	-3.8%
> COc1ccc(NC(=O)Cc2ccsc2)cc1S(=O)(=O)N1CCCCC1
 : -17.6%	i
> O=C(Nc1nnc(SCc2ccccn2)s1)C1CC(=O)N(c2ccc(F)cc2)C1 (configuration not stated)
 : 1.7%	-1.3%
> COC(=O)c1ccc(C2c3c(oc4cc(C)c(C)cc4c3=O)C(=O)N2c2ccccn2)cc1 (configuration not stated)
 : 1.2%	9.6%
> O=S(=O)(Nc1cccc(-c2ccc3nncn3n2)c1)c1cccs1
 : 8.7%	i
> O=C(Nc1cc(C(F)(F)F)ccc1Cl)c1cc(-c2ccc3c(c2)OCCO3)on1
 : -9.9%	-15.6%
> Cc1onc(-c2ccccc2Cl)c1C(=O)Nc1nc2c(s1)CCCC2
 : -6.8%	-10.6%
> CCN1C(=NCCOC)N[C@@H](c2cccs2)C(C(=O)OC)=C1C
 : -2.0%	-2.7%
> COc1cc(NC(=O)CCN2CCOCC2)cc(OC)c1
 : -14.8%	i
> CCSc1ncc(Cl)c(C(=O)Nc2ccccc2F)n1
 : -6.0%	-15.7%
> CCCCc1nc2cc(C(=O)N3CCCCC3CCO)ccc2o1 (configuration not stated)
 : -8.0%	i
> C=CCNC(=S)Nc1cc(C)ccn1
 : -9.6%	-17.7%
> COn1c(SCC(N)=O)nc2ccccc2c1=O
 : -17.8%	/
